KCNQ2 block: KCNQ2 potassium channel inhibitors, primary screen, cell-based, CHO-K1, FluxOR thallium flux, B-score (AID 2156); Potassium voltage-gated channel subfamily KQT member 2 (Rattus norvegicus), O88943; B-score at 10 µM; 20 min; active compounds read low; only compounds with negative scores are shown here; some inactives read as strong as hits; 310,000 tested, 1.1% active;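 active = fluorescence ratio B-score at most minus 3 library SDs, with starting brightness B-score within 2 library SDs, cut at about -5.5 in these data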
Target sequence (O88943 whole entry, looked up): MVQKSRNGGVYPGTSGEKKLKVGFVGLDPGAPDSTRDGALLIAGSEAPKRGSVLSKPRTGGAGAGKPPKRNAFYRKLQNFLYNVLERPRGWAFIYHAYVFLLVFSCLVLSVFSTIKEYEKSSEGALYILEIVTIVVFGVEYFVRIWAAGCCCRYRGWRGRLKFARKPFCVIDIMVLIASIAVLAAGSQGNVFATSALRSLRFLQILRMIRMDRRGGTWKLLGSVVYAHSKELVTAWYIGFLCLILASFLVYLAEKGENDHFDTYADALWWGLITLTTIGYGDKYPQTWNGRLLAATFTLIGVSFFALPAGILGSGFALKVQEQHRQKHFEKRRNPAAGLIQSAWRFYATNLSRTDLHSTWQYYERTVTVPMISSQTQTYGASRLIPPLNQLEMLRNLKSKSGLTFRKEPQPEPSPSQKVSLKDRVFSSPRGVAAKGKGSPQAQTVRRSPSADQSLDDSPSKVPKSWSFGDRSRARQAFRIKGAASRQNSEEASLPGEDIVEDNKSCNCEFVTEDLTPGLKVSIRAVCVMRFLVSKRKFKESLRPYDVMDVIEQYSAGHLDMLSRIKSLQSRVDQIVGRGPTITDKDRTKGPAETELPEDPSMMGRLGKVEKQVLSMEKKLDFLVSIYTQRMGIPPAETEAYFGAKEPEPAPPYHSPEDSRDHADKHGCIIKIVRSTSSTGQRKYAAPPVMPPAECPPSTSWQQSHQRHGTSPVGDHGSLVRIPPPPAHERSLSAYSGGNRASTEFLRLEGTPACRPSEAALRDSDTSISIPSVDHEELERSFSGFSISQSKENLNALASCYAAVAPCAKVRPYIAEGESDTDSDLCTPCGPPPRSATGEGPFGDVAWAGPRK
KCNQ2 block baseline: further read-out of KCNQ2 block, marked with its call; B-score; measured here: initial fluorescence intensity artifact check;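 brightness before thallium and not channel activity; 0 = typical well and far values either way flag optical interference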
Starred values were filed as active, the others as inactive; i = inactive. This is a subset (hit frequency here may not be typical).

KCNQ2 block	KCNQ2 block baseline	canonical_smiles
i	-0.05	Cc1nn(-c2ccc(N3CCCCC3)nn2)c(C)c1CCC(=O)Nc1ccc(F)cc1
i	1.2	Oc1ccc2c(c1)C1CCCC1(N1CCOCC1)O2 (stereo unspecified)
i	0.01	Cc1cccc(CN2CCN(CC(=O)N3CCCC3)C2=O)c1
i	0.43	COC(=O)C1=CN(CC2CCCO2)C=C(C(=O)OC)C1c1cccc(O)c1 (stereo unspecified)
i	-0.98	O=C(NCCc1ccccc1)C1CCN(S(=O)(=O)c2ccc(-c3nn[nH]n3)cc2)CC1
i	1.9	CCOCCn1c(CN2CCCCC2)nc2c1c(=O)n(C)c(=O)n2C
i	-1.1	Cc1cc(C(=O)COC(=O)c2ccc(N)c([N+](=O)[O-])c2)c(C)n1-c1ccc2c(c1)OCO2
i	0.89	Cn1c(CNc2ccccc2)cc(=O)n(C)c1=O
i	0.01	Cc1ccc2c(CC(=O)OCC(=O)Nc3ccc(Cl)cn3)coc2c1
i	-0.31	COc1ccc(S(=O)(=O)N=C2C=C(C)C(=O)C(C)=C2)cc1

Next section:
KCNQ2 block	KCNQ2 block baseline	canonical_smiles
i	-0.51	COc1ccc(CCNC(=O)c2ccc3c(c2)OCO3)cc1
i	-2	CCC(NC(=O)Cn1cnc2c(=O)n(C)c(=O)n(C)c21)c1ccccc1 (stereo unspecified)
i	0.05	CCn1c(=O)c(C(=O)NCCc2ccccc2)c(O)c2ccccc21
i	0.06	CCn1c(SCC(=O)NC2CCCc3ccccc32)nnc1-c1ccncc1 (stereo unspecified)
i	0.76	COc1ccc(/C=N/n2c(C)nc3ccccc3c2=O)cc1
i	-3	O=c1c2ccccc2nc(SCc2cn3ccsc3n2)n1-c1ccccc1
i	-0.82	COc1ccccc1N1CCN(C(=O)COc2cc(C)cc(C)c2)CC1
i	-0.27	CCCCN(C(=O)CCCSc1nc2ccccc2[nH]1)c1c(N)n(Cc2ccccc2)c(=O)[nH]c1=O
i	-1.5	Cc1ccc(S(=O)(=O)N(C)c2ccc3sc(C)nc3c2)cc1
i	0.36	CCOc1ccccc1N1Cc2ccccc2C1

Entries listed so far that contain an aryl thioether with sulfur outside any ring (3):
KCNQ2 block	KCNQ2 block baseline	canonical_smiles
i	0.06	CCn1c(SCC(=O)NC2CCCc3ccccc32)nnc1-c1ccncc1 (stereo unspecified)
i	-3	O=c1c2ccccc2nc(SCc2cn3ccsc3n2)n1-c1ccccc1
i	-0.27	CCCCN(C(=O)CCCSc1nc2ccccc2[nH]1)c1c(N)n(Cc2ccccc2)c(=O)[nH]c1=O

Further records follow.
KCNQ2 block	KCNQ2 block baseline	canonical_smiles
-6.6*	1.8*	Cc1ccc(NCc2nc3ccccc3n2C)c(C)c1
i	-0.27	CC(CC(=O)Nc1nnc(C(C)(C)C)s1)c1ccccc1 (stereo unspecified)
i	-0.72	CCc1c(C(=O)Nc2ccccc2C(N)=O)csc1C
i	1.1	N#CC1=C(N)Nc2ncnn2C1c1ccc(F)cc1 (stereo unspecified)
i	0.96	COc1ccc(CCNC(=O)C2(C)CCC(=O)N2Cc2ccc3c(c2)OCO3)cc1OC (stereo unspecified)
i	-0.69	NNC(=O)CCc1ccc(S(=O)(=O)N2CCOCC2)cc1
-6.7*	0.57*	COc1cc2c(cc1OC)C(C)N(C(=O)c1cc3c(s1)-c1c(C)cccc1OC3)CC2 (stereo unspecified)
i	-1.5	CC(C)C(NS(=O)(=O)c1cccc2nsnc12)C(=O)N1CCc2ccccc2C1 (stereo unspecified)
i	-0.45	Cc1c(C(=O)Nc2ccc(Cl)cc2)c2ccccn2c1C(=O)c1ccc([N+](=O)[O-])cc1
i	-0.01	O=[N+]([O-])c1ccc2nc(/C=C/c3ccc(Cl)cc3)[nH]c2c1

Carrying on:
KCNQ2 block	KCNQ2 block baseline	canonical_smiles
i	-3.3	COc1ccccc1Cn1nnc2c(=O)[nH]c(C3CCN(C(=O)c4ccc(C)cc4)CC3)nc21
i	-0.72	COc1ccc(N(C(=O)c2ccc(C)cc2)S(=O)(=O)c2cccs2)cc1
i	-0.25	CC1(C)CC(NC2C3CC4CC(C3)CC2C4)CC(C)(C)N1 (stereo unspecified)
i	-0.46	Cc1sc2ncn(CC(=O)N3CCC(C(N)=O)CC3)c(=O)c2c1S(=O)(=O)N1CCOCC1
i	-1.8	COc1ccc2cc3cc(C(=O)NCCN4CCc5ccccc5C4)oc3nc2c1
i	-0.12	Cc1[nH]nc2nc(SCC(=O)NCC3CCCO3)n(-c3ccc(Br)cc3)c(=N)c12 (stereo unspecified)
i	1.2	CCc1noc(C)c1C(=O)NCCc1ccc(Cl)cc1
i	-0.36	C=CCn1c(-c2cccc(OCC)c2)n[nH]c1=S
i	-0.63	COc1ccc(CCNC(=O)Cn2c(=O)n(-c3ccc(F)cc3F)c(=O)c3sccc32)cc1OC
i	-0.08	CC(NC(=O)/C=C/c1cnc2ccccc2n1)C12CC3CC(CC(C3)C1)C2 (stereo unspecified)

Going on with the list.
KCNQ2 block	KCNQ2 block baseline	canonical_smiles
i	1.1	COc1ccccc1OCC(=O)NCC1CCCN(Cc2cnn(C)c2C)C1 (stereo unspecified)
i	0.04	COc1cccc(OCc2cc(C(=O)NCC3CCCCC3)no2)c1
i	2.5	CCOC(=O)c1ccc(Nc2cc(C)nc(C)c2C(=O)OCC)cc1
i	2.5	CN(C)c1ccc(/C=C/C(O)=C2/C(=O)N(C)C3(C)CC2c2ccccc2O3)cc1 (stereo unspecified)
i	-0.2	CC1(C)CC(=O)C2=C(C1)NC(=O)CC2c1ccc(F)cc1 (stereo unspecified)
i	-2.8	CC(C)NC(=S)N/N=C/c1c[nH]c2ccccc12
i	-1.1	CCc1ccc(C(=O)N2CCN(c3ccc(F)cc3)CC2)s1
i	0.6	O=S(=O)(Nc1ccc2c(c1)OCCO2)c1ccc2oc3ccccc3c2c1
i	-0.18	CCCOc1ccc(C(=O)Nc2ccc(S(=O)(=O)Nc3cc(C)nc(C)n3)cc2)cc1
i	1.1	O=C(c1ccccc1)C1CCN(C(=O)c2ccc(Cl)cc2)CC1

The listing continues.
KCNQ2 block	KCNQ2 block baseline	canonical_smiles
i	-0.38	Oc1ccc(-c2nc3ncccn3c2Nc2ccc3c(c2)OCO3)cc1
i	0.22	O=S(=O)(c1ccc(NC(=S)N/N=C/c2ccc(O)c(O)c2)cc1)N1CCOCC1
i	1.6	CCOCCCn1c(SCC(=O)Nc2ccc(C(N)=O)cc2)nc2ccccc2c1=O
i	0.72	O=C(NCCN1CCCCC1)c1c(O)c2ccccc2[nH]c1=O
i	-0.07	COc1ccc(CNS(=O)(=O)NCc2ccccc2)cc1
i	-2.3	CCC(Oc1ccccc1)C(=O)N1CCC(C(N)=O)CC1 (stereo unspecified)
i	1.9	COc1cc(-c2nc(C)c(C(C)=O)n2O)ccc1OCC(=O)Nc1ccc(F)cc1
i	-0.01	CCC(=O)c1cc2c(C)cc(=O)oc2c(C)c1OC
i	0.29	Cc1ccc(CSC2=Nc3ccccc3C3=NC(CC(=O)NCc4ccco4)C(=O)N23)cc1 (stereo unspecified)
i	0.46	CN1CCN(S(=O)(=O)c2cccc(C(=O)Nc3nc(-c4ccccc4)cs3)c2)CC1

Continuation:
KCNQ2 block	KCNQ2 block baseline	canonical_smiles
i	1.1	O=C(NCC(=O)N(CC1CCCO1)C1(C(=O)NC2CCCC2)CCCCC1)c1ccccc1 (stereo unspecified)
i	-1.8	C#CCNC(=O)C1=C[C@@H](c2ccc(C(F)(F)F)cc2)C[C@@H](OCc2ccc(CO)cc2)O1
i	0.64	COc1ccc(CN2CCN(C(=O)C3CCN(S(=O)(=O)c4cccs4)CC3)CC2)c(OC)c1OC
i	-0.22	Cc1cc(O)c2c(c1)C(=O)c1cc(O)cc(O)c1C2=O
i	0.64	Cc1ccc(/C=C/C(=O)O)cc1S(=O)(=O)N1CCc2ccccc21
i	3.1	CC(NC(=O)c1cccs1)c1ccc(Cl)cc1 (stereo unspecified)
i	1.8	COc1ccc(N2CC(C(=O)NCCc3c[nH]c4ccccc34)CC2=O)cc1 (stereo unspecified)
i	0.55	C=C1CCN([C@@H](C)C(=O)OCc2cccc(C)c2)S(=O)(=O)c2ccccc21
i	-1.8	COc1cc(CCCN2CCNC[C@@H]2Cc2ccccc2)cc(OC)c1OC
i	-0.32	COCCCNC(=O)c1c(N)n(/N=C/c2cccs2)c2nc3ccccc3nc12

Some values from the entries so far.
CC(NC(=O)c1cccs1)c1ccc(Cl)cc1 (stereo unspecified) in KCNQ2 block baseline has 3.1
COc1ccc(N2CC(C(=O)NCCc3c[nH]c4ccccc34)CC2=O)cc1 (stereo unspecified) in KCNQ2 block baseline has 1.8

Next part:
KCNQ2 block	KCNQ2 block baseline	canonical_smiles
i	0.25	Cc1cccc(C)c1OCCCCN1CCNCC1
i	-0.14	CC(C)C(=O)Nc1nnc(S(=O)(=O)N(C)c2ccc(Cl)cc2)s1
i	-0.94	CC(C)C(NC(=O)CSCc1ccc([N+](=O)[O-])cc1)C(C)C
i	0.07	CCOc1ccc(C2/C(=C(/O)c3ccc(S(=O)(=O)N4CCCCC4)cc3)C(=O)C(=O)N2CCCOC)cc1OC (stereo unspecified)
i	0.27	COc1ccc(N(C)C(=O)c2oc(=O)c3ccccc3c2-c2ccccc2)c(OC)c1
i	-0.56	CCOC(=O)N1CCN(C(=O)CCCN2C(=O)CSc3nc(C)cc(C)c32)CC1
i	0.3	Cc1nc2c(ccc3nc(NC(=O)Cc4cccc5ccccc45)sc32)s1
i	-1.5	COc1ccc(-c2c(C#N)c(N)nc3c2CCCCCC3)cc1OC
i	0.01	COc1ccccc1CCNC(C)CCc1ccc(O)cc1 (stereo unspecified)
-6.3*	-1.8*	COc1ccccc1NC(C)C(=O)N/N=C/c1ccccc1OCc1cccc(Br)c1 (stereo unspecified)

Arranged by formula weight (smallest number first): part of the list above
KCNQ2 block	KCNQ2 block baseline	canonical_smiles
i	0.25	Cc1cccc(C)c1OCCCCN1CCNCC1
i	0.01	COc1ccccc1CCNC(C)CCc1ccc(O)cc1 (stereo unspecified)
i	-1.5	COc1ccc(-c2c(C#N)c(N)nc3c2CCCCCC3)cc1OC
i	-0.14	CC(C)C(=O)Nc1nnc(S(=O)(=O)N(C)c2ccc(Cl)cc2)s1

Next section.
KCNQ2 block	KCNQ2 block baseline	canonical_smiles
i	-2.2	COC(=O)c1ccc(Nc2cc(C)nc3ccc(C)cc23)cc1
i	-1.5	O=C(Nc1ccc(F)cc1)OCCN1CCN(Cc2ccccc2)CCC1=O
i	0.34	CCCN(CCC)S(=O)(=O)c1ccc(C(=O)NNc2nc(-c3ccccc3)c3cc(Br)ccc3n2)cc1
i	0.83	CCCCN(C)C(=O)C1CCN(CCCc2ccccc2)CC1
i	0.57	Cc1ccc(C)c(NC(=O)CSc2nnc(Cc3cccn3C)n2-c2ccc(F)cc2)c1
i	-0.84	CC(C)c1ccc(O)c(NC(=O)c2cccnc2)c1
i	0.02	CC(Sc1nnc(Nc2ccccc2)s1)C(=O)NC1CCCc2ccccc21 (stereo unspecified)
i	0.03	COC(=O)Cn1nnc2c(cnn2-c2ccccc2)c1=O
i	-1.2	O=C(CSc1ccc(-c2ccccn2)nn1)Nc1ccc(F)cc1F
i	-1.2	CCCN1CCN(C(=O)c2oc3c(Cl)cccc3c2C)CC1

The final 2 compounds of the section above open the next one.
KCNQ2 block	KCNQ2 block baseline	canonical_smiles
i	-1.2	O=C(CSc1ccc(-c2ccccn2)nn1)Nc1ccc(F)cc1F
i	-1.2	CCCN1CCN(C(=O)c2oc3c(Cl)cccc3c2C)CC1
i	-1.9	N#Cc1cccc(NC(=O)CN2CCCCCC2)c1
i	-0.16	COc1ccccc1/C=C/C1C(C(=O)OCC(C)C)=C(C)N=C2SCCC(=O)N21 (stereo unspecified)
i	-0.47	CCN1CCN(S(=O)(=O)c2ccc(F)c(C(=O)Nc3c(F)cc(F)cc3Br)c2)CC1
i	0.69	O=C(CC1C(=O)NCCN1C(=O)c1ccc([N+](=O)[O-])cc1)Nc1ccc(F)cc1 (stereo unspecified)
i	-1.6	COc1ccc(C2(C#N)CCC(=O)N2c2ccccc2)cc1 (stereo unspecified)
i	0.18	CCOC(=O)C1=C(c2ccccc2)NC(SCC(=O)Nc2ccccc2C)=C(C#N)C1c1ccco1 (stereo unspecified)
i	-0.39	CC(C)C(=O)Nc1cc(C(F)(F)F)ccc1-n1ccnc1
i	-3.2	Cn1c(/C(C#N)=C(\O)c2cccc(F)c2)nc2ccccc21
i	0.83	COc1ccc(N2C(=O)CC(C)(C)CC2=O)cc1OC
i	-0.87	CCCS(=O)(=O)C(=C(Nc1ccc(OC)cc1)Nc1ccc(OC)cc1)S(=O)(=O)CCC

Going on with the list.
KCNQ2 block	KCNQ2 block baseline	canonical_smiles
i	-0.01	Cc1ccc(/C=C/S(=O)(=O)NCc2ccc(F)cc2)cc1
i	0.36	CCC(C(=O)NC1CC1)n1nc(C)c2c(C)n(-c3ccc(C)cc3)nc2c1=O (stereo unspecified)
i	0.26	Cc1cc(C)cc(N(CC(=O)NC(C)(C)C)C(=O)CNC(=O)c2cccs2)c1
i	-0.08	O=C(N/N=C/c1cc(Br)ccc1O)C(=O)Nc1ccccc1OC(F)(F)C(F)F
i	2	Cc1ccc(/C=C/C(=O)Nc2ccc(Oc3ccccc3)cc2)o1
i	-0.53	O=C(Cn1c(=O)n(Cc2ccco2)c(=O)c2ccccc21)Nc1cccc(Cl)c1
i	2	CCOc1ccc(N2CC(C(=O)NCCC3=CCCCC3)CC2=O)cc1 (stereo unspecified)
i	0.04	COc1cc(/C=N/N=C2\CC3CCC2(C)C3(C)C)ccc1O (stereo unspecified)
i	0.03	COC(=O)C1=C(C)NC(C)=C(C(=O)OCC2CCCO2)C1c1cccc(Br)c1 (stereo unspecified)
i	0.2	Cc1cccc(NC(=O)CNC(=O)CCc2nc3sc4c(c3c(=O)[nH]2)CCCC4)c1C
i	-0.27	O=C1CCC(=O)c2oc3ccccc3c2N1
i	0.75	Cc1ccc(C)n1CCN1CCN(C(=O)CSc2nc3ccccc3nc2N2CCOCC2)CC1
